# Screening data from PubChem BioAssay.
# GIRK2 act = activators of human GIRK2 potassium channels; G protein-activated inward rectifier potassium channel 2 (Homo sapiens), P48051; HEK293-GIRK2 thallium flux, Thallos fluorescence; calls only for hits at 25 µM; 63,000 tested, 0.05% active;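 active means among the strongest 0.2% of first-round signals and kept after retests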;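 further: first round at about 10 µM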
# Target sequence (P48051 whole entry, looked up): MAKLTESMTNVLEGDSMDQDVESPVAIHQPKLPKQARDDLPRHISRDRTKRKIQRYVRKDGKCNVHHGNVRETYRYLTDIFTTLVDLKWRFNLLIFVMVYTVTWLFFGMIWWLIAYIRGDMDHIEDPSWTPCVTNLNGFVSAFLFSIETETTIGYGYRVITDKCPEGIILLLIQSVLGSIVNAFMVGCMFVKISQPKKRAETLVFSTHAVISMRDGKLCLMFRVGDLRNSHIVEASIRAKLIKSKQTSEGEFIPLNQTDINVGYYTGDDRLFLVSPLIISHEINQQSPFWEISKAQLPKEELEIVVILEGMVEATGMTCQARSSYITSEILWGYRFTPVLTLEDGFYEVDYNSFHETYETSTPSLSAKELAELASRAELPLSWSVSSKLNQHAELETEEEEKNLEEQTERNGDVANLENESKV
# Calls only; i = inactive. This is a subset (hit frequency here may not be typical).
SMILES,GIRK2 act
Cc1ccccc1C(OCCN(C)C)c1ccccc1 (configuration not stated),i
Cn1cc(C(=O)NCC(Cc2cccc(F)c2)N2CCNC2=O)nn1 (configuration not stated),i
O=C(CC1CCCCC1)NCC1CCN(c2ncccn2)CC1,i
CN(C)CCNC(=O)C(=O)NCC1OCCN1S(=O)(=O)c1ccccc1 (configuration not stated),i
CC(=O)C(C)n1c(=O)c2c(nc3n(-c4ccc(C)c(Cl)c4)c(C)cn23)n(C)c1=O (configuration not stated),i
Cc1nn(C)cc1S(=O)(=O)NCc1ccc2c(c1)OCO2,i
COc1ccc(NC(=O)c2cc3cccnc3n(C)c2=O)cc1,i
Cn1nc(-c2ccc(F)cc2)cc1C(=O)NCC#CCOc1ccc2c(c1)OCO2,i
O=S(=O)(NCC1(CO)CC1)c1ccc(F)c(F)c1,i
COCCCNc1nc2c(c(=O)[nH]c(=O)n2C)n1CCCOc1ccccc1,i
CCc1ccc(S(=O)(=O)N2CCN(c3ccc(-c4ccccc4OC)nn3)CC2)s1,i
CC(C)(C)NC(=O)C(=O)NCCCN1CCN(c2ccccc2)CC1,i
Cc1c(Cl)cccc1NC(=O)C(=O)NCC1(c2ccc(F)cc2)CC1,i
Cc1noc(C)c1S(=O)(=O)NCc1cc(-c2ccco2)n(C)n1,i
Cc1ccc(NC(=O)C2CCN(c3ccc(-c4ccco4)nn3)CC2)cc1F,i

# Some of the entries above in another layout.
compound | GIRK2 act
O=S(=O)(NCC1(CO)CC1)c1ccc(F)c(F)c1 | i
COCCCNc1nc2c(c(=O)[nH]c(=O)n2C)n1CCCOc1ccccc1 | i
CCc1ccc(S(=O)(=O)N2CCN(c3ccc(-c4ccccc4OC)nn3)CC2)s1 | i

# Compounds shown so far that have four or more nitrogen atoms, in the order listed:
SMILES,GIRK2 act
Cn1cc(C(=O)NCC(Cc2cccc(F)c2)N2CCNC2=O)nn1 (configuration not stated),i
O=C(CC1CCCCC1)NCC1CCN(c2ncccn2)CC1,i
CN(C)CCNC(=O)C(=O)NCC1OCCN1S(=O)(=O)c1ccccc1 (configuration not stated),i
CC(=O)C(C)n1c(=O)c2c(nc3n(-c4ccc(C)c(Cl)c4)c(C)cn23)n(C)c1=O (configuration not stated),i
COCCCNc1nc2c(c(=O)[nH]c(=O)n2C)n1CCCOc1ccccc1,i
CCc1ccc(S(=O)(=O)N2CCN(c3ccc(-c4ccccc4OC)nn3)CC2)s1,i
CC(C)(C)NC(=O)C(=O)NCCCN1CCN(c2ccccc2)CC1,i
Cc1noc(C)c1S(=O)(=O)NCc1cc(-c2ccco2)n(C)n1,i
Cc1ccc(NC(=O)C2CCN(c3ccc(-c4ccco4)nn3)CC2)cc1F,i

# The listing picks up, repeating the 4 entries before the break.
SMILES,GIRK2 act
CC(C)(C)NC(=O)C(=O)NCCCN1CCN(c2ccccc2)CC1,i
Cc1c(Cl)cccc1NC(=O)C(=O)NCC1(c2ccc(F)cc2)CC1,i
Cc1noc(C)c1S(=O)(=O)NCc1cc(-c2ccco2)n(C)n1,i
Cc1ccc(NC(=O)C2CCN(c3ccc(-c4ccco4)nn3)CC2)cc1F,i
CCN1CCCN(c2ncc([N+](=O)[O-])c(N)n2)CC1,i
[N-]=[N+]=NCc1ccc(/C=C2\C=C(CC(=O)NCc3ccccc3)c3cc(F)ccc32)cc1,i
O=C(NCC1(O)CCOCC1)c1ccc(OC(F)(F)F)cc1,i
CSc1ccccc1NC(=O)/C=C/C1=Cc2ccccc2OC1,i
Cc1cn2c3c(=O)n(CCc4ccccc4)c(=O)n(C)c3nc2n1CCO,i
CN(C)C(CNC(=O)C(=O)Nc1cccc(C(F)(F)F)c1)c1cn(C)c2ccccc12 (configuration not stated),i
COc1ccc2c(=O)c3c(oc2c1)C(=O)N(CCN(C)C)C3c1cccc(OC)c1OC (configuration not stated),i
COc1ccc(S(=O)(=O)N2CCCSCC2CN2CCCC2)cc1F (configuration not stated),i
Cc1cc(C)n(-c2cc(N3CCCC(C(=O)NCCC4=CCCCC4)C3)ncn2)n1 (configuration not stated),i
Cc1nnc(SCC(=O)Nc2cccc(-c3nc4ccccc4s3)c2)s1,i
NC(=NCCC(N)C(=O)O)NO (configuration not stated),i
Cc1[nH]c(=O)n(C)c(=O)c1CCC(=O)Nc1ccc(S(N)(=O)=O)cc1,i
CC(CCc1ccccc1)NC(=O)C1CN(C(=O)COc2ccccc2F)C1 (configuration not stated),i
COCCOC(=O)C1=C(C)OC(N)=C(C#N)C1c1ccco1 (configuration not stated),i
COc1ccc(OCC(O)Cn2c(NCCN3CCOCC3)nc3c2c(=O)[nH]c(=O)n3C)cc1 (configuration not stated),i
CC(O)(CCc1ccccc1)CNC(=O)Nc1ccc(Cl)c(Cl)c1 (configuration not stated),i
COCCNc1cc(C)nc2c(-c3ccccc3Cl)c(C(F)(F)F)nn12,i
Cc1nc(C)c(-c2ccc(=O)n(CCNC(=O)Cn3cnc4ccccc4c3=O)n2)s1,i
O=C(Nc1nsc(-c2ccccc2)n1)c1ccc(F)cc1,i
O=S(=O)(Cc1cc(F)ccc1F)NCC1(c2cccs2)CCOCC1,i
CC1CN(c2ccc(Br)cc2)c2nc3c(c(=O)n(CC(=O)O)c(=O)n3C)n2C1 (configuration not stated),i
CCOc1ccccc1NC(=O)Cn1c(=O)nc(-c2ccccc2)c2ccccc21,i
O=C(NCc1ccc(OC(F)(F)F)cc1)C1CN(c2nc3ccc(F)cc3s2)C1,i
NC(=O)c1nnn(-c2ccc(Br)cc2)n1,i
COc1ccc(C(=O)/C=C/c2ccc(OC)c(OC)c2)c(OC(=O)c2cccs2)c1,i
CC1CC(C)CN(C(=O)C(=O)c2cn(CC(=O)N3CCOCC3)c3ccccc23)C1 (configuration not stated),i
CC(O)(CNC(=O)/C=C/c1ccc2c(c1)OCO2)c1cccs1 (configuration not stated),i
COc1cccc(Nc2c(-c3nc(C4CC4)no3)cnc3nc(C)ccc23)c1,i
CN(C)S(=O)(=O)c1ccc2c(c1)CCN2C(=O)c1ccc(S(=O)(=O)NC2CC2)cc1,i
CCOc1cccc2cc(C(=O)NCCn3nc(-n4ccnc4)ccc3=O)c(=O)oc12,i
CC(C)=CCC/C(C)=C/CC/C(C)=C/CCC1(C)CCc2cc(O)c(C)c(C)c2O1 (configuration not stated),i
Cc1ccc(OCC(=O)Nc2nc(-c3ccncc3)cs2)cc1,i
O=C(CNS(=O)(=O)c1ccc(F)c(Cl)c1)NCCc1ccccc1,i
O=C(O[C@H]1CN[C@H](C#Cc2cc3ncnc(Nc4ccc(Cc5ccccc5)cc4)c3s2)C1)N1CCOCC1,i
COC(=O)C1=COC(O[C@@H]2O[C@H](CO)[C@@H](O)[C@H](O)[C@H]2O)[C@@H]2[C@@](C)(O)[C@@H](OC(=O)/C=C/c3ccccc3)C[C@]12O (some centres not stated),i
CCCCC[C@H](O)/C=C/[C@H]1CC[C@H](O)[C@@H]1C/C=C\CCCC(=O)O,i
COC(=O)c1ccc(Oc2coc3c4c(ccc3c2=O)OCN(Cc2ccc3c(c2)OCO3)C4)cc1,i
O=C(NCCOc1cc(N2CCCCC2)ncn1)c1cccs1,i
O=C(c1nc2ccccc2s1)N1CCC(c2nnc(-c3ccco3)o2)CC1,i
CC(C)(C)N(C(=O)c1ccc([N+](=O)[O-])o1)C(=O)N1CCCCC1,i
Cc1cc(NC(=O)COc2ccccc2F)n(-c2nc3ccccc3s2)n1,i
CNC(=O)CSc1cnn(CC(=O)NCc2cccc(Cl)c2)c(=O)c1Cl,i
COc1ccc(OCCn2c(C3CC(=O)N(c4cccc(OC)c4)C3)nc3ccccc32)cc1 (configuration not stated),i
O=C(Nc1cnc(N2CCCC2)nc1)c1ccc(Br)o1,i
C=C1/C(=C\C=C2/CCC[C@]3(C)[C@@H]([C@H](C)/C=C/[C@@H](O)C4CC4)CC[C@@H]23)C[C@@H](O)C[C@@H]1O,i
NC(=O)Cn1c(-c2ccc(C(F)(F)F)cc2)nc2c(c1=O)CCN(Cc1ccccc1)C2,i
CN(C)C(=O)Cc1ccc(NC(=O)/C=C/c2ccccc2Cl)cc1,i
COc1ccc(C)c2sc(N(CCN3CCOCC3)C(=O)C3Oc4ccccc4OC3C)nc12 (configuration not stated),i
COCC1CCCN(C(=O)c2cn(C)nn2)C1 (configuration not stated),i
COc1ccc(-n2nnc(C(=O)O)c2-c2ccccc2)cc1,i
COc1ccc(-n2cc(C(=O)OCc3ccccn3)c3ccccc3c2=O)cc1,i
O=C(CN1CCN(CC(=O)c2cccs2)CC1)Nc1cc(C(F)(F)F)ccc1Cl,i
O=C(CSc1nc2c(sc(=S)n2-c2ccccc2)c(=O)[nH]1)Nc1ccc(F)cc1,i
COC(=O)N1CCc2c(sc(NC(=O)c3ccc(Cl)cc3)c2-c2nc3ccccc3s2)C1,i
O=C(c1ccc2c(c1)OCO2)N1CC(c2nc(-c3ccc[nH]c3=O)no2)C1,i
C/C=C/C(=O)OC(COCCCCCCCCCCCCCCCC)COP(=O)([O-])OCC[N+](C)(C)C (configuration not stated),i
CCc1noc(Cn2cnc3c4cc(C)ccc4n(CC(=O)NCc4cccc(OC)c4)c3c2=O)n1,i
COc1ccc(CNC(=O)NCC2(CO)CC2)cc1OC,i
COc1ccccc1OCCn1c(C2CC(=O)N(c3cccc(C)c3)C2)nc2ccccc21 (configuration not stated),i
C=Cc1ccc(Cn2nc3n(CCC)c(=O)c4ccc(C(=O)NC5CCCCC5)cc4n3c2=O)cc1,i

# Going on with the list.
SMILES,GIRK2 act
O=c1cc(Cn2ccnc2)c2cc(O)c(-c3ccccc3)cc2o1,i
O=S(=O)(c1ccc(F)c(Cl)c1)N1CCC2(CC1)OCCCO2,i
CC(=O)Oc1ccc2c(c1)O/C(=C\c1cccc(Br)c1)C2=O,i
CCOc1cc(/C=C2\SC(=S)N(c3cccc(C)c3C)C2=O)ccc1O,i
CCCCS(=O)(=O)N1CCC(COCc2ccc(F)cc2)CC1,i
COc1cc2[nH]c3c(=O)n(CC(=O)NCCC4=CCCCC4)cnc3c2cc1OC,i
O=C(CSc1nccnc1N1CCC(Cc2ccccc2)CC1)Nc1ccc2c(c1)OCCO2,i
COc1ccc(Cl)cc1NC(=O)C1Nc2cc(C)ccc2S(=O)(=O)N1 (configuration not stated),i
C(=C\c1nn2c(CCc3ccccc3)nnc2s1)/c1cccs1,i
O=S(=O)(c1ccc2c(c1)CCCC2)N1CCN(c2ccc(-c3cccnc3)nn2)CC1,i
COc1cccc2sc(N3CC(OC(=O)C4=COCCO4)C3)nc12,i
CC1(C)OB(c2ccc(OCCN3CCOCC3)cc2)OC1(C)C,i
COc1ccc(CCNC(=O)Nc2ccc3c(c2)CCCN3C(=O)c2cccs2)cc1,i
CCCCN1CC(c2nc3ccccc3n2Cc2cccc(C)c2)CC1=O (configuration not stated),i
CC1CCN(c2cc(NC(=O)c3c(F)cccc3Cl)ncn2)CC1,i
CSc1ccc(CNC(=O)c2ccc3nncn3c2)cc1,i
COCc1nnc(NC(=O)COc2ccc(C)cc2C(C)(C)C)s1,i
Cc1ccc(-c2noc(-c3cccn4c(=O)n(CC(=O)NC(C)(C)C)nc34)n2)cc1,i
COc1ccccc1CNC(=O)c1coc(NC(=O)c2cnccn2)n1,i
Cn1nc(CNS(=O)(=O)/C=C/c2ccccc2)cc1-c1ccco1,i
c1ccc(C2CCCNCC2)cc1 (configuration not stated),i
CCOC(=O)c1cnn2ccc(NC(=O)c3c(F)cccc3Cl)cc12,i
O=C(NCc1nn(C2CCCC2)c(=O)c2ccccc12)c1cc(=O)c2ccccc2o1,i
COc1ccc(NC(=O)CCc2nc3sc4c(c3c(=O)[nH]2)CCCCC4)cc1OC,i
Cc1ccc2[nH]c3c(=O)n(CCC(=O)NCc4ccc5c(c4)OCO5)cnc3c2c1,i
Cc1cccc(N2C(=O)N(c3ccc(F)cc3)C3CS(=O)(=O)CC32)c1C (configuration not stated),i
O=C(CSCc1ccccc1)N(CCc1cccs1)C1CC1,i
O=C(Cn1ccn2nc(-c3ccc(F)cc3)cc2c1=O)NCCC1=CCCCC1,i
O=C(CSc1nc2ncccc2c(=O)n1Cc1ccccc1)Nc1cccc(C(F)(F)F)c1,i
CCOC(=O)c1c(-c2ccccc2)oc2ccc(OCC(=O)NN)cc12,i
COc1ccc(CNC(=O)NCCC(O)c2cccc3ccccc23)cc1 (configuration not stated),i
Cc1cc(NC(=O)c2c(F)cccc2F)n(CCO)n1,i
CC[C@H](C)/C=C(C)/C=C/C1=CC2=CC(=O)[C@]3(C)OC(=O)[C@@H](C(C)=O)[C@@H]3C2=CO1,i
CC(C)C(=O)Nc1ccc(-n2cnc(C(=O)NCCc3ccc(Cl)cc3)c2)nc1,i
O=C(NCc1cccc2ccccc12)Nc1ccc2c(c1)C(=O)NCC2,i
COc1ccc(S(=O)(=O)N2CCC(c3nc(-c4ccc(F)cc4)no3)CC2)cc1,i
Cc1nnsc1C(=O)NCc1cc(-c2cccs2)n(C2CCCC2)n1,i
Cc1ccc(-n2c(N3CCCC(C(=O)NCC4CC4)C3)nc3ccsc3c2=O)cc1 (configuration not stated),i
O=C(c1ccc(=O)[nH]n1)N1CC(Oc2nc3ccccc3s2)C1,i
COc1ccc(Cl)cc1C(=O)N1CCC(COCc2ccc(F)cc2)CC1,i
Cc1cn2nnc(C(=O)Nc3ccc(OC(F)(F)F)cc3)c2c(=O)[nH]1,i
COc1cc([N+](=O)[O-])cc2cc(C(=O)Nc3ccc(S(=O)(=O)N4CCCCC4)cc3)c(=O)oc12,i
O=C(Cc1ccccc1Cl)NC1CCN(Cc2noc(-c3ccccc3)n2)C1 (configuration not stated),i
O=C(NCc1ccccc1Cl)c1csc(Nc2ncccn2)n1,i
CC(Oc1ccccc1)C(=O)NCC#CCOc1ccccc1C(N)=O (configuration not stated),i
O=S(=O)(c1cccc(C(F)(F)F)c1)N1CCC(CSCc2ccco2)CC1,i
O=C(Nc1nc(CCC(=O)N2CCN(c3ncccn3)CC2)cs1)NC1CCCCC1,i
